Screens deposited in PubChem by Broad Institute.
NOMO-1 viab = STK33 inhibitor candidate reducing NOMO-1 cell viability | inhibition, % (test concentration not listed) | hit rate 7.5% among 37,000 | NOMO-1 AML viability, CellTiter-Glo luminescence, 72 h | AID 2330;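 active means most replicates above 80%; inconclusive means exactly half above 80%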;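 further: wells of about 30 µL received 25 nL stock; 0% = median of vehicle wells and 100% = reference inhibitor level; the first replicate is given; inactives centre near 10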
* marks the source's active call; other numbers are inactive results; ? = inconclusive.

SMILES	NOMO-1 viab
C[C@H]1CN([C@@H](C)CO)C(=O)Cc2cc(NS(=O)(=O)c3ccc(F)cc3)ccc2O[C@@H]1CN(C)CC1CCCCC1	123.2*
C[C@H](CO)N1C[C@H](C)[C@H](CN(C)Cc2ccc(Oc3ccccc3)cc2)Oc2c(NC(=O)Nc3ccc(C(F)(F)F)cc3)cccc2C1=O	117.4*
C[C@@H]1CCCCO[C@@H](CN(C)C(=O)Nc2ccc3c(c2)OCO3)[C@@H](C)CN([C@H](C)CO)C(=O)c2cc(NS(=O)(=O)c3ccccc3)ccc2O1	6.5
C[C@@H]1CCCCO[C@@H](CN(C)S(=O)(=O)c2cccs2)[C@@H](C)CN([C@H](C)CO)C(=O)c2cc(NS(=O)(=O)c3ccc(Cl)cc3)ccc2O1	86.3*
C[C@@H]1CN([C@H](C)CO)C(=O)c2cccc(NS(C)(=O)=O)c2O[C@@H]1CN(C)CC1CCCCC1	-1.5
C[C@@H]1CN([C@H](C)CO)C(=O)Cc2cc(NC(=O)CCN3CCOCC3)ccc2O[C@H]1CN(C)Cc1ccc(C(=O)O)cc1	6.9
Cc1noc(C)c1NC(=O)Nc1ccc2c(c1)CC(=O)N([C@@H](C)CO)C[C@@H](C)[C@@H](CN(C)Cc1ccccc1)O2	17.4
COc1ccc(NC(=O)N(C)C[C@H]2Oc3ccc(NC(=O)CCCN(C)C)cc3C(=O)N([C@H](C)CO)C[C@@H]2C)cc1	-8.5
CCn1c(SCC(=O)Nc2cc(C)ccc2OC)nnc1-c1ccc(Cl)cc1	8.4
COc1ccc(-c2csc(Cc3nc(-c4cc5ccccc5oc4=O)cs3)n2)cc1	21.5
C[C@@H]1CCCCO[C@H](CN(C)S(=O)(=O)c2ccc(F)cc2)[C@@H](C)CN([C@H](C)CO)C(=O)c2cc(NS(=O)(=O)c3ccccc3)ccc2O1	-11.0
COc1cc(OC)c(NC(=O)CN(C)S(=O)(=O)c2ccc(C)cc2)cc1Cl	1.3
C[C@@H]1CCCCO[C@@H](CN(C)Cc2ccc(C(=O)O)cc2)[C@@H](C)CN([C@H](C)CO)C(=O)c2cc(NC(=O)CCC(F)(F)F)ccc2O1	-14.0
COC(=O)C(Cc1c[nH]c2ccccc12)NC(=O)C(NC(=O)C(C)NC(=O)/C=C/C(=O)O)C(C)c1c[nH]c2ccccc12 (stereo unspecified)	7.0
COc1ccc(S(=O)(=O)N(C)C[C@@H]2Oc3c(NS(=O)(=O)c4ccc(Cl)cc4)cccc3C(=O)N([C@H](C)CO)C[C@H]2C)cc1	19.3
C[C@H](CO)N1C[C@H](C)[C@@H](CN(C)Cc2ccc(Oc3ccccc3)cc2)Oc2c(NS(=O)(=O)c3ccc(Cl)cc3)cccc2C1=O	104.0*
O=C(Nc1ccccc1C(=O)O)c1cccc(S(=O)(=O)Nc2cccc(Br)c2)c1	-5.2
Cc1cc(C(=O)Nc2cccc3c2O[C@H](CN(C)Cc2ccccc2)[C@H](C)CN([C@H](C)CO)C3=O)n(C)n1	-4.0
CC(C)NC(=O)Nc1cccc2c1O[C@H](CN(C)CC1CCCCC1)[C@@H](C)CN([C@H](C)CO)C2=O	72.0
COc1ccc(S(=O)(=O)N(C)C[C@H]2Oc3ccc(N(C)C)cc3C(=O)N([C@@H](C)CO)C[C@@H]2C)cc1	11.7
CCCC(=O)n1nc(-c2ccc(Cl)cc2)nc1NCc1ccco1	69.7
C[C@H]1CN([C@@H](C)CO)C(=O)Cc2cc(NC(=O)Nc3ccc(F)cc3)ccc2O[C@@H]1CN(C)C(=O)NC1CCCCC1	1.7
C[C@@H]1CN([C@H](C)CO)C(=O)c2cccc(NS(=O)(=O)c3ccc(Cl)cc3)c2O[C@H]1CN(C)Cc1ccc(Cl)c(Cl)c1	40.5
C[C@H]1CN([C@@H](C)CO)C(=O)c2cc(NS(=O)(=O)c3ccc(Cl)cc3)ccc2O[C@H]1CN(C)CC1CC1	11.5
CN(C)CCCNc1c([N+](=O)[O-])c(=O)n(C)c2ccccc12	22.7
More entries
SMILES	NOMO-1 viab
COc1ccc(NC(=O)N(C)C[C@H]2Oc3c(NC(=O)c4cnccn4)cccc3C(=O)N([C@@H](C)CO)C[C@@H]2C)cc1	1.3
C[C@H]1CN([C@@H](C)CO)C(=O)Cc2cc(NC(=O)c3ccncc3)ccc2O[C@@H]1CN(C)S(=O)(=O)c1ccccc1	-26.2
COc1ccccc1C1(CC(=O)O)CCOC(C(C)C)C1 (stereo unspecified)	4.0
CC1OC(NC(=O)c2ccccc2F)C(NC(=O)c2ccccc2F)OC1C (stereo unspecified)	9.7
Cc1cc(C)nc(SC(C)C(=O)Nc2ccc(S(N)(=O)=O)cc2)n1 (stereo unspecified)	12.5
COc1ccc(NC(=O)CSC2CC(=O)N(c3ccccc3C)C2=O)cc1 (stereo unspecified)	13.8
C[C@@H]1CN([C@@H](C)CO)C(=O)c2cccc(NS(=O)(=O)c3cccs3)c2O[C@@H]1CN(C)Cc1ccc(C(F)(F)F)cc1	10.9
C=C(C)[C@@H]1CC[C@]2(C(=O)O)CC[C@]3(C)[C@H](CC[C@@H]4[C@@]5(C)CC[C@H](O)C(C)(C)[C@@H]5CC[C@]43C)[C@@H]12	105.2*
Cc1cccc(CSc2nnc(NC(=O)c3oc4ccc(F)cc4c3C)s2)c1	11.5
Cc1c(NC(=O)COc2ccc(Br)cc2)cccc1-c1nc2ccccc2s1	11.5
Cc1ccc(S(=O)(=O)Nc2cccc3c2O[C@@H](CN(C)S(=O)(=O)c2ccc(C)cc2)[C@@H](C)CN([C@H](C)CO)C3=O)cc1	30.4
C[C@H]1CN([C@@H](C)CO)C(=O)Cc2cc(NC(=O)CCN3CCOCC3)ccc2O[C@H]1CN(C)S(C)(=O)=O	-1.1
COc1ccc(NC(=O)Nc2cccc3c2O[C@H](CN(C)C)[C@H](C)CN([C@H](C)CO)C3=O)cc1	-14.9
Cc1nn(CCCC(=O)O)c(C)c1[N+](=O)[O-]	-14.7
C[C@H]1CN([C@@H](C)CO)C(=O)Cc2cc(NC(=O)Nc3ccccc3)ccc2O[C@@H]1CN(C)Cc1ccncc1	-12.5
C[C@H](CO)N1C[C@H](C)[C@H](CN(C)Cc2ccc(C(=O)Nc3ccccc3N)cc2)Oc2ccc(NS(=O)(=O)c3cccs3)cc2C1=O	109.2*
COC(=O)COc1cccc(NC(=O)c2ccccc2)c1	121.7*
Cc1nc(SCC(=O)O)c2c3c(sc2n1)CCCC3	-5.7
CS(=O)(=O)N(CC(=O)O)c1ccc(C23CC4CC(CC(C4)C2)C3)cc1	2.2
COc1ccc(CN(C)C[C@@H]2Oc3c(NC(=O)Nc4ccc5c(c4)OCO5)cccc3C(=O)N([C@H](C)CO)C[C@@H]2C)cc1	18.1
C[C@H]1CN([C@@H](C)CO)C(=O)Cc2cc(N(C)C)ccc2O[C@@H]1CN(C)Cc1ccc2c(c1)OCO2	30.1
C=CCN1CCN(c2nc3ccccc3nc2C#N)CC1	-0.7
C[C@H]1CN([C@@H](C)CO)C(=O)Cc2cc(NC(=O)Nc3cccc4ccccc34)ccc2O[C@@H]1CN(C)Cc1ccccc1	49.6
O=C(Oc1ccc(C=Nc2ccc(F)cc2)cc1)c1ccco1	8.2
COC(=O)c1ccccc1NC(=O)C(C)NS(=O)(=O)c1ccc(Cl)cc1 (stereo unspecified)	-7.4

By substructure: those above containing an aryl thioether with sulfur outside any ring.
SMILES	NOMO-1 viab
CCn1c(SCC(=O)Nc2cc(C)ccc2OC)nnc1-c1ccc(Cl)cc1	8.4
Cc1cc(C)nc(SC(C)C(=O)Nc2ccc(S(N)(=O)=O)cc2)n1 (stereo unspecified)	12.5
Cc1cccc(CSc2nnc(NC(=O)c3oc4ccc(F)cc4c3C)s2)c1	11.5
Cc1nc(SCC(=O)O)c2c3c(sc2n1)CCCC3	-5.7

More results:
SMILES	NOMO-1 viab
Cc1ccc(S(=O)(=O)N(C)C[C@H]2Oc3ccc(NC(=O)NC(C)C)cc3CC(=O)N([C@H](C)CO)C[C@H]2C)cc1	10.8
Cc1noc(C)c1NC(=O)N(C)C[C@@H]1Oc2c(NC(=O)Nc3ccc(C(F)(F)F)cc3)cccc2C(=O)N([C@@H](C)CO)C[C@@H]1C	42.3
CN1CCN(CCCN2C(=O)CSC2c2ccc(F)cc2)CC1 (stereo unspecified)	3.7
COc1ccc(/C=N/n2cnnc2)cc1	7.6
COc1ccc(C)cc1NC(=O)CSc1nnc(-c2ccc(Br)cc2)o1	9.4
C[C@H](CO)N1C[C@H](C)[C@H](CN(C)S(=O)(=O)c2cccs2)Oc2c(NC(=O)Nc3ccc(C(F)(F)F)cc3)cccc2C1=O	92.0*
CC1(C)Cc2c(sc3c2c2ncnn2c2nnc(SCC(=O)c4ccc(Br)cc4)n32)CO1	54.4
Cc1noc(C)c1S(=O)(=O)Nc1cccc2c1O[C@@H](CN(C)Cc1ccc(Oc3ccccc3)cc1)[C@@H](C)CN([C@H](C)CO)C2=O	50.2
Cc1noc(C)c1NC(=O)Nc1ccc2c(c1)C(=O)N([C@H](C)CO)C[C@H](C)[C@H](CN(C)S(C)(=O)=O)O2	-12.7
On1c(-c2ccccc2Cl)nc2c1CCc1nonc1-2	-10.2
O=C(CN1C(=O)c2ccccc2S1(=O)=O)Nc1ccccc1-c1ccccc1	16.1
Cc1noc(C)c1S(=O)(=O)Nc1ccc2c(c1)C(=O)N([C@@H](C)CO)C[C@@H](C)[C@@H](CN(C)Cc1ccc3c(c1)OCO3)O2	24.9
C[C@@H]1CN([C@H](C)CO)C(=O)Cc2cc(NC(=O)Nc3ccccc3)ccc2O[C@@H]1CN(C)Cc1ccc(C(F)(F)F)cc1	?
CCOC(=O)C1CCCCN1Cc1cc(OC)ccc1OC (stereo unspecified)	-2.0
Cc1cc(Br)cc(C)c1OCC(=O)Nc1sc(C)c(C)c1C(N)=O	29.5
Cc1nonc1OCCNc1cc(N2CCOCC2)ccc1[N+](=O)[O-]	8.1
CS(=O)(=O)N(CC(=O)O)c1ccc(F)c(Cl)c1	9.3
Cc1ccc(NC(=O)CSc2ncnc3sc(C)c(C)c23)cc1	11.3
Cc1cc(C(=O)SCc2ccccc2)nn1Cc1c(Cl)cccc1Cl	32.2
O=C(CSc1nc(N2CCCCC2)nc(N2CCCCC2)n1)c1ccccc1	17.1
S=c1[nH]nc(Cc2ccccc2)n1Cc1ccccc1	17.2
C[C@@H]1CN([C@@H](C)CO)C(=O)Cc2cc(NC(=O)Nc3ccc(C(F)(F)F)cc3)ccc2O[C@@H]1CN(C)C(=O)Nc1ccc(F)cc1	115.1*
Cc1ccc(S(=O)(=O)N(C)C[C@@H]2Oc3ccc(NS(=O)(=O)c4c(C)noc4C)cc3CC(=O)N([C@H](C)CO)C[C@H]2C)cc1	-13.6
COc1ccc(NC(=O)Nc2ccc3c(c2)CC(=O)N([C@H](C)CO)C[C@@H](C)[C@@H](CN(C)S(=O)(=O)c2c(C)noc2C)O3)cc1	42.5
COc1ccc2nc(SCC(=O)NC3CCCCC3)[nH]c2c1	49.5

Molecules above that contain bromine, in the order listed:
SMILES	NOMO-1 viab
O=C(Nc1ccccc1C(=O)O)c1cccc(S(=O)(=O)Nc2cccc(Br)c2)c1	-5.2
Cc1c(NC(=O)COc2ccc(Br)cc2)cccc1-c1nc2ccccc2s1	11.5
COc1ccc(C)cc1NC(=O)CSc1nnc(-c2ccc(Br)cc2)o1	9.4
CC1(C)Cc2c(sc3c2c2ncnn2c2nnc(SCC(=O)c4ccc(Br)cc4)n32)CO1	54.4
Cc1cc(Br)cc(C)c1OCC(=O)Nc1sc(C)c(C)c1C(N)=O	29.5

(continued)
SMILES	NOMO-1 viab
CN1CCN(C(CC(=O)Nc2cccc(O)c2)C(=O)O)CC1 (stereo unspecified)	-12.4
COC(=O)c1cccc(COC(=O)c2cc(=O)[nH]c3ccccc23)c1	15.5
COc1ccc(C(=O)Nc2ccccc2C(=O)NCC2CCCO2)cc1 (stereo unspecified)	26.8
CC(C)NC(=O)N(C)C[C@@H]1Oc2ccc(NC(=O)Cc3cn(C)c4ccccc34)cc2C(=O)N([C@@H](C)CO)C[C@H]1C	-8.5
O=C(CCN1C(=O)c2cccc3cccc(c23)C1=O)N1CCN(c2ncccn2)CC1	7.9
C[C@H](CO)N1C[C@H](C)[C@@H](CN(C)C(=O)Nc2ccc3c(c2)OCO3)Oc2ccc(NC(=O)Nc3cccc4ccccc34)cc2C1=O	3.0
C[C@@H]1CN([C@H](C)CO)C(=O)c2cc(NS(=O)(=O)c3ccc(F)cc3)ccc2O[C@@H]1CN(C)S(=O)(=O)c1ccc(F)cc1	14.9
C[C@H]1CN([C@@H](C)CO)C(=O)c2cc(NC(=O)Nc3ccc4c(c3)OCO4)ccc2O[C@H]1CN(C)C(=O)Nc1ccc(C(F)(F)F)cc1	-6.3
C[C@H](CO)N1C[C@H](C)[C@H](CN(C)C(=O)Nc2cccc3ccccc23)Oc2ccc(NC(=O)NC3CCCCC3)cc2C1=O	16.2
CC(=O)Oc1cc(OC(C)=O)c2c(c1)O[C@H](c1ccc(OC(C)=O)c(OC(C)=O)c1)[C@H](OC(C)=O)C2	63.0
CC(C)NC(=O)N(C)C[C@H]1Oc2ccc(NS(=O)(=O)c3cccs3)cc2CC(=O)N([C@@H](C)CO)C[C@@H]1C	7.0
C[C@H](CO)N1C[C@H](C)[C@H](CN(C)Cc2ccc(C(=O)O)cc2)Oc2ccc(NC(=O)CCN3CCOCC3)cc2CC1=O	-0.3
C[C@@H]1CN([C@@H](C)CO)C(=O)c2cccc(NC(=O)c3nc4ccccc4s3)c2O[C@H]1CN(C)S(=O)(=O)c1cn(C)cn1	-1.2
Cc1ccc(C(=O)CSc2nnc(-c3ccccc3[N+](=O)[O-])o2)cc1	-10.9
C[C@H](CO)N1C[C@H](C)[C@@H](CN(C)C(=O)Nc2ccccc2)Oc2ccc(NC(=O)Cn3cnnn3)cc2C1=O	-14.4
COc1ccc(NC(=O)N(C)C[C@@H]2Oc3c(NC(=O)NC4CCCCC4)cccc3C(=O)N([C@@H](C)CO)C[C@@H]2C)cc1	12.3
COc1cc(/C(C)=C/C(C)CCCC(=O)O)oc(=O)c1C (stereo unspecified)	41.4

Not all compounds are listed; count on the stated rates, not on these rows.
